# Bioassay records from PubChem.
# Polio RdRp inh: poliovirus RdRp elongation inhibitors, primary screen, biochemical, fluorescence polarization, total intensity | Genome polyprotein (Poliovirus type 1 (strain Mahoney)), P03300 | poliovirus polymerase elongation; stronger effect = lower value | % elongation, % (compound at 16.7 µg/mL) | 150,000 compounds, 0.66% hits; in the data active = % elongation below about 90%; note: some results filed as inactive read as strong as hits
# Target sequence (P03300 1749-2209 limits assumed): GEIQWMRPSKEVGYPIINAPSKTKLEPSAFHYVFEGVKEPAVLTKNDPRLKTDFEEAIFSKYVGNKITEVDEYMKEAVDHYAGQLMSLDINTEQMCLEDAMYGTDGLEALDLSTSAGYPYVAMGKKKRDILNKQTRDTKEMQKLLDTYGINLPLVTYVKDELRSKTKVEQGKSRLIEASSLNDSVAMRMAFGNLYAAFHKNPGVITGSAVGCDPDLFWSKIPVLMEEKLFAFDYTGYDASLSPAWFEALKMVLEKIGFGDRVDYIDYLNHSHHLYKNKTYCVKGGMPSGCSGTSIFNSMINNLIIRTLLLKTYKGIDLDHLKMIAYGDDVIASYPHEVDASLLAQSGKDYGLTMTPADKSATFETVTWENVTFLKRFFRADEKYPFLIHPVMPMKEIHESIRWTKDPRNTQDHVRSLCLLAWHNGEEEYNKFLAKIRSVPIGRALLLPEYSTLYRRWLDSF
# Polio RdRp inh intensity: further read-out of Polio RdRp inh, marked with its call; % elongation; measured here: total intensity read-out; formula for this scale not given here;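 total fluorescence in place of polarization; lower means less elongation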
# Starred values were filed as active, the others as inactive. Some of the compounds tested. The share of hits here may be higher or lower than overall.
# Every second line gives: Polio RdRp inh	Polio RdRp inh intensity
> CCC(=O)N1CCc2cc(Br)cc(S(=O)(=O)CCC(=O)NCCc3cccc(C)c3)c21
    105	105
> Cc1cccc(-n2c(-c3ccccc3)cn3c4c(=O)[nH]c(=O)n(C)c4nc23)c1
    102	97
> CCOC(=O)CNC(c1ccccc1)c1cc(Br)ccc1NC(=O)c1cccc(Cl)c1 (configuration not stated)
    106	107
> CC(C)c1ccc(NC(=O)CCNS(=O)(=O)c2ccc3c(c2)oc(=O)n3C)cc1
    110	112
> COc1ccc(CCNC(=O)CCCn2c(=O)c3ccccc3n(Cc3ccccc3C)c2=O)cc1OC
    108	109
> O=C(Cc1ccc(NC(=O)N2CCSc3ncccc32)cc1)NCc1ccccc1Cl
    97	106
> Cc1c(C(=O)OC2CCCC2)[nH]c2c1C(=O)CC(c1ccc(C(C)(C)C)cc1)C2 (configuration not stated)
    104	111
> Cn1c(=O)oc2cc(S(=O)(=O)N3CCCC(C(=O)N4CCN(c5ccc(Cl)cc5)CC4)C3)ccc21 (configuration not stated)
    113	109
> COc1ccccc1C(=O)NC1(C(F)(F)F)C(=O)Nc2c1c(=O)[nH]c(=O)n2CCc1ccccc1 (configuration not stated)
    108	109
> COc1ccc(Nc2cc(C(=O)NCc3cccs3)c3ccccc3n2)cc1
    112	109
> CCOc1ccc(C2c3c(oc4cc(C)c(C)cc4c3=O)C(=O)N2c2ccccn2)cc1 (configuration not stated)
    106	108
> Cc1ccccc1-c1noc(-c2ccc(NCc3ccco3)c([N+](=O)[O-])c2)n1
    107	109
> Cc1ccc(S(=O)(=O)c2cn(CC(=O)Nc3ccccc3C)c3cc4c(cc3c2=O)OCO4)cc1
    111	114
> COc1cccc(CNC(=O)CCCn2ncn3c(cc4occc43)c2=O)c1
    112	113
> Cn1c(=O)n(Cc2ccccc2Cl)c(=O)c2c1nc1n2CCN1c1ccccc1
    105	110
> CCCc1nnc(NC(=O)Cc2coc3c(C)c(C)ccc23)s1
    115	116
> O=C(NC1CCCC1)c1ccc2c(c1)N(Cc1ccccc1Cl)C(=O)c1ccccc1S2
    105	101
> Cc1cc(C)c(NC(=O)Cn2cnc3c(oc4ccccc43)c2=O)c(C)c1
    111	110
> O=C(CN1C(=O)C2(SCC(=O)N2c2cccc(F)c2)c2ccccc21)NCc1ccccc1Cl (configuration not stated)
    104	101
> Cc1ccc(-n2ncc(C(=O)NCCN3CCN(C)CC3)c2C2CCN(C(=O)OC(C)(C)C)CC2)cc1
    103	106

# Next section, starting with the last 2 of the part before.
# Every second line gives: Polio RdRp inh	Polio RdRp inh intensity
> O=C(CN1C(=O)C2(SCC(=O)N2c2cccc(F)c2)c2ccccc21)NCc1ccccc1Cl (configuration not stated)
    104	101
> Cc1ccc(-n2ncc(C(=O)NCCN3CCN(C)CC3)c2C2CCN(C(=O)OC(C)(C)C)CC2)cc1
    103	106
> CCc1ccccc1NC(=O)CN1C(=O)COc2ccc(S(=O)(=O)Nc3ccccc3)cc21
    103	106
> CC(C)c1ccc(NC(=O)Cn2c(=O)n(Cc3nc(-c4ccccc4)no3)c(=O)c3cc4c(cc32)OCO4)cc1
    112	109
> CCOc1ccccc1N(CC)C(=O)Cn1ncc2c([nH]c3ccccc32)c1=O
    105	107
> Cc1cccc(C)c1-n1ncc(C(=O)NCCN2CCOCC2)c1C1CCN(C(=O)OC(C)(C)C)CC1
    110	111
> COc1cccc(C(c2sc3nc(-c4ccco4)nn3c2O)N2CCN(C)CC2)c1 (configuration not stated)
    107	102
> Cc1oc2ncn(C)c(=O)c2c1C(=O)N1CCN(c2ccccc2)CC1
    108	110
> COc1ccccc1N1CCN(C(=O)Cn2c(=O)n3nc(-c4cccc(C)c4)nc3c3ccccc32)CC1
    107	112
> Cc1nn(CCCC(=O)Nc2cccc(F)c2)c(=O)c2c1sc1ccccc12
    111	117
> COc1ccc(CCNC(=O)CCCn2c(=O)c3ccccc3n(CC(=O)Nc3cccc(C)c3)c2=O)cc1OC
    108	111
> CCc1ccc(NC(=O)C2CCCN(S(=O)(=O)c3ccc4c(c3)CCCN4C(C)=O)C2)cc1 (configuration not stated)
    101	104
> CCOC(=O)c1cc(C)n(CC2CCC(C(=O)Nc3ccc(OC)c(OC)c3)CC2)c1C (configuration not stated)
    107	104
> CCS(=O)(=O)c1nc(S(=O)(=O)c2ccc(C)cc2)c(NCc2ccc(Cl)cc2)s1
    103	103
> CC(=O)Nc1ccc(NC(=O)CCCc2nc(-c3ccc(C(C)(C)C)cc3)no2)cc1
    104	105
> CCOc1ccc(CNS(=O)(=O)c2ccc3[nH]c(=O)ccc3c2)cc1
    111	117
> Cc1ccc(-c2nc(SCC(=O)NCc3ccco3)c3c(=O)n(C)c(=O)n(C)c3n2)cc1
    109	109
> COc1cc(OC)c(NC(=O)CSc2nc3ccncc3[nH]2)cc1Cl
    104	106
> CSc1ccc(/C=C/c2nc3ccccc3n2S(=O)(=O)c2ccc(F)c(C)c2)cc1
    106	107
> Cc1ccccc1OCC(=O)Nc1ccccc1C(=O)OCc1cc(=O)n2ccsc2n1
    92	94
> Cc1ccc(CCNC(=O)CN(c2cc(C)cc(C)c2)S(=O)(=O)c2c(C)noc2C)cc1
    106	109
> Cc1ccc(Cn2c(=O)n(-c3ccc(C)cc3)c(=O)c3c2c2cc(C)ccc2n3C)cc1
    105	114
> COc1ccc(-n2c(=O)c3c(c4cc(OC)ccc4n3C)n(Cc3cccc(C)c3)c2=O)cc1
    110	116
> COc1ccccc1Cn1c(CNS(=O)(=O)c2ccc3c(c2)CCCC3)nc2cccnc21
    109	118
> O=C(NCCc1ccccc1)c1nnc(Cc2cccc(F)c2)o1
    100	95
> COc1ccc(NC(=O)c2c(NC(=O)COc3ccccc3)sc3c2CCC(C(C)(C)C)C3)cc1 (configuration not stated)
    106	105
> CCOc1cc(CN2CCN(S(=O)(=O)c3ccc(C)cc3)CC2)ccc1OC
    100	96
> O=C(CSc1nc(-c2ccc(F)cc2)[nH]c1-c1ccc(F)cc1)Nc1ccc2c(c1)OCCO2
    112	116
> Cn1nnnc1SCCNCc1ccccc1OCc1ccc(Cl)cc1Cl
    102	105
> Cc1ccn2cc(-c3ccc(C)c(NS(=O)(=O)c4ccc(Cl)cc4)c3)nc2c1
    112	115
> CCOc1ccccc1NS(=O)(=O)c1cc(-c2cnc(C3CC3)o2)ccc1C
    109	104
> Cc1cccc(N(C)c2nc3ccc(C)cc3n3nnnc23)c1
    111	116
> COc1ccc(-c2csc3ncnc(Nc4ccccc4)c23)cc1
    109	110
> Cc1cc(Cl)ccc1NC(=O)CCS(=O)(=O)c1cc2c(cc1C)NC(=O)CO2
    100	102
> Cc1ccccc1CN1CCC(CNc2ncnc3onc(-c4ccc(Cl)cc4)c23)CC1
    111	110
> Cc1cccc(NC(=O)N2CCc3c(sc4c3CCCC4)C2c2ccc(F)cc2)c1 (configuration not stated)
    102	109
> O=C(NC1CCCCCC1)C1CCN(C(=O)N2CCOc3ccccc32)CC1
    112	112
> CCOc1ccc(NC(=O)c2c(NCc3cccs3)sc3c2CCCCC3)cc1
    107	116
> CCCN1Cc2cccc(C(=O)Nc3ccccc3C(=O)OC)c2C1=O
    105	101
> CCOC(=O)c1cc(OC(=O)c2ccc(OC)c(OC)c2)n(-c2ccccc2)n1
    105	109
> CCOC(=O)c1c(NC(=O)/C=C/c2ccc(C)cc2)sc(C(C)=O)c1C
    105	113
> COc1ccc(CCN2C(=O)N(c3cccc(C)c3)C(=O)C2CC(=O)Nc2ccccc2)cc1OC (configuration not stated)
    103	103
> CCC1CN(C(=O)Nc2cccc3c2CCCC3)c2cc(Cl)ccc2O1 (configuration not stated)
    111	113
> Nc1ccc(N2CCN(c3ncc(C(F)(F)F)cc3Cl)CC2)c(C(F)(F)F)c1
    105	104
> COC(=O)c1c(C)sc(-c2c(-c3cccc(OC)c3)[nH]c3c2c(=O)[nH]c(=O)n3C)c1O
    115	122
> Cc1cccc(NC(=O)CSc2nc(-c3cccs3)nc3cc(=O)[nH]n23)c1
    104	100
> COCCNC(=O)C1CCCN(S(=O)(=O)c2ccc3c(ccn3C)c2)C1 (configuration not stated)
    110	111
> Cc1cc(C)cc(N2CCn3c2nc2c3c(=O)n(CCc3ccccc3)c(=O)n2C)c1
    104	101
> CCCCC(=O)Nc1c(C(=O)N2CCN(c3ccccc3)CC2)oc2ccccc12
    106	114
> C#CC(C)(CC)NC(=O)Cn1nnc(-c2ccc(OCc3ccccc3F)cc2)n1 (configuration not stated)
    109	111
> CCc1ccc(OCC(=O)Nc2ccc3oc(-c4ccc(OC)cc4)nc3c2)cc1
    105	109
> CCc1nc2ccc(C(=O)N3CCN(c4cc(Cl)ccc4C)CC3)cc2nc1CC
    107	111
> Cc1ccccc1-c1nn2c(=O)cc(CN3CCN(C(=O)COc4ccccc4Cl)CC3)nc2s1
    105	106
> CCCCn1c(SCC(=O)Nc2ccc(OCC)cc2)nc2ccsc2c1=O
    111	108
> Cc1ccc2oc(-c3cccc(NC(=O)c4cccc5c(Cl)cccc45)c3)nc2c1
    106	112
> CCOc1ccccc1NC(=O)NCCn1c(=O)oc2ccc(C)cc21
    107	111
> O=c1cc(N2CCN(c3ccc(F)cc3)CC2)[nH]c(=O)n1-c1cccc(Br)c1
    104	107
> COc1cccc(CNC(=O)CCn2cnc3ccccc3c2=O)c1
    95	103
> CCOC(=O)c1nnn(C(CC)C(=O)Nc2c(C)cccc2C)c1C(=O)OCC (configuration not stated)
    113	113
> CCOc1ccc(-n2nc3ccc(NC(=O)c4cccc(F)c4)cc3n2)cc1
    108	109
> Cc1nc(Nc2ccc(Cl)cc2)cc(-c2ccccc2)n1
    110	107
> COc1cc(NC(=O)c2cc3nc(-c4ccc(C)cc4)cc(C(F)(F)F)n3n2)cc(OC)c1OC
    104	110

# 4 compounds from above, arranged by number of heavy atoms, smallest number first:
# Every second line gives: Polio RdRp inh	Polio RdRp inh intensity
> Cc1nc(Nc2ccc(Cl)cc2)cc(-c2ccccc2)n1
    110	107
> COCCNC(=O)C1CCCN(S(=O)(=O)c2ccc3c(ccn3C)c2)C1 (configuration not stated)
    110	111
> CCc1ccc(OCC(=O)Nc2ccc3oc(-c4ccc(OC)cc4)nc3c2)cc1
    105	109
> COc1cc(NC(=O)c2cc3nc(-c4ccc(C)cc4)cc(C(F)(F)F)n3n2)cc(OC)c1OC
    104	110

# The listing continues:
# Every second line gives: Polio RdRp inh	Polio RdRp inh intensity
> COC(=O)c1ccc(C2c3c(-c4ccccc4O)n[nH]c3C(=O)N2Cc2cccnc2)cc1 (configuration not stated)
    100	95
> COC(=O)c1ccccc1NC(=O)CN(c1ccccc1OC)S(C)(=O)=O
    104	104
> Cc1cc(F)ccc1NC(=O)CCSc1nc(-c2ccco2)cc(C(F)(F)F)n1
    103	105
> Cc1ccc2nc(CSc3nnc(NC(=O)COc4ccccc4)s3)cc(=O)n2c1
    110	108
> CCc1ccccc1NC(=O)CSc1ncc2c(n1)-c1ccccc1N(Cc1ccc(C)cc1)S2(=O)=O
    109	115
> COc1cc(-c2noc(-c3ccc(NC4CCCC4)c([N+](=O)[O-])c3)n2)cc(OC)c1OC
    115	114
> COc1ccc(-c2noc(CN(C(=O)c3cc(OC)c(OC)cc3OC)C(C)C)n2)cc1
    99	102
> COc1cccc(CC(=O)Nc2ccc(-c3nc4ccccc4s3)cc2Cl)c1
    105	114
> O=C(Nc1cccc(Br)c1)N1CCC(CN2CCCCC2)CC1
    112	119
> Cc1ccc(CCNC(=O)CN2C(=O)COc3ccc(S(=O)(=O)N4CCC(C)CC4)cc32)cc1
    111	115
> O=c1c2ccccc2n2c(-c3ccc(Cl)cc3)nnc2n1CCc1ccccc1
    74*	64*
> Cc1ccccc1NC(=O)c1ccc(F)c(S(=O)(=O)N(C)C2CCCCC2)c1
    100	96
> COc1cccc(NC(=O)Cn2c(=O)n(-c3cccc(OC)c3)c(=O)c3sc4ccccc4c32)c1
    96	99
> COc1ccccc1OCC(=O)N(Cc1ccc(N(C)C)cc1)CC1CCCO1 (configuration not stated)
    111	108
> O=C(CCS(=O)(=O)c1cc(Br)cc2c1N(C(=O)C1CC1)CC2)N1CCN(c2ccc(F)cc2)CC1
    102	104
> COc1ccc(S(=O)(=O)N(CCc2ccccc2)CC(=O)NCc2ccc(C)cc2)cc1
    107	110
> Cc1cccc(NC(=O)c2ccc3nc(C(C)C)oc3c2)c1C
    111	101
> CC1CCCN(c2cc3c(cc2F)c(=O)c(S(=O)(=O)c2cccc(Cl)c2)cn3C)C1 (configuration not stated)
    111	109
> CCOc1ccc2nc(N3CCC(C(=O)Nc4ccc(Br)cc4F)CC3)sc2c1
    110	116
> Cc1cc(Oc2nc3ccccn3c(=O)c2/C=C(\C#N)c2nc3ccccc3s2)ccc1Cl
    100	137

# As entered above.
# In Polio RdRp inh, Cc1ccc2nc(CSc3nnc(NC(=O)COc4ccccc4)s3)cc(=O)n2c1 shows 110
# In Polio RdRp inh intensity, Cc1cc(Oc2nc3ccccn3c(=O)c2/C=C(\C#N)c2nc3ccccc3s2)ccc1Cl shows 137

# Further results follow.
# Every second line gives: Polio RdRp inh	Polio RdRp inh intensity
> O=C(Nc1ccc(F)cc1F)c1cc(-c2ccc3c(c2)OCO3)on1
    106	112
> CCC(C(=O)NCCc1ccccc1)n1nc(C)c2sc3ccccc3c2c1=O (configuration not stated)
    111	106
> Cc1ccc(CCNC(=O)Cn2c(-c3cccs3)cc3ccccc32)cc1
    109	103
> O=C(CCn1c(=O)c2cccn2c2cccnc21)N1CCN(c2ccc(Cl)cc2)CC1
    112	113
> CCOC(=O)c1sc2ccccc2c1S(=O)(=O)N1CCN(c2cc(C)ccc2C)CC1
    106	112
> COc1cccc2c1cc1c(=O)n(CC(=O)O)nc(C)n12
    113	116
> CCOc1ccc(NC(=O)CSc2nc(-c3cccs3)cc(C(F)(F)F)c2C#N)cc1
    108	112
> O=C(Nc1ccc(OC(F)(F)F)cc1)c1nc2ccccc2nc1N1CCCCC1
    104	99
> CCOc1ccc(CNC(=O)C2CCCCN2S(=O)(=O)c2ccc(F)cc2)cc1OC (configuration not stated)
    102	105
> CCOC(=O)c1sc2ncn(CC(=O)Nc3cc(Cl)ccc3C)c(=O)c2c1C
    101	98
> COc1ccc(Nc2nc3c(S(=O)(=O)c4ccccc4)nnn3c3ccc(Cl)cc23)cc1OC
    104	105
